Rango-impB inh = Rango-importin beta binding inhibition; Potency, µM (doses to about 92.2 µM), for the others: at the top dose inhibition of complex formation; Rango CFP/YFP FRET sensor + importin beta, 45 min; AID 540263; 340,000 compounds, 0.031% hits; active = rising FRET ratio curve, often small or poorly fitted; inconclusive = mostly compound fluorescence or quenching in the first reads; inactive = flat curves in all reads;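 further: potency means the concentration at half of the fitted maximal effect; 0% = DMSO wells and 100% = buffer wells lacking importin beta; nearly all actives have a fitted effect of over 15% in size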
Target sequence (Q14974 whole entry, looked up): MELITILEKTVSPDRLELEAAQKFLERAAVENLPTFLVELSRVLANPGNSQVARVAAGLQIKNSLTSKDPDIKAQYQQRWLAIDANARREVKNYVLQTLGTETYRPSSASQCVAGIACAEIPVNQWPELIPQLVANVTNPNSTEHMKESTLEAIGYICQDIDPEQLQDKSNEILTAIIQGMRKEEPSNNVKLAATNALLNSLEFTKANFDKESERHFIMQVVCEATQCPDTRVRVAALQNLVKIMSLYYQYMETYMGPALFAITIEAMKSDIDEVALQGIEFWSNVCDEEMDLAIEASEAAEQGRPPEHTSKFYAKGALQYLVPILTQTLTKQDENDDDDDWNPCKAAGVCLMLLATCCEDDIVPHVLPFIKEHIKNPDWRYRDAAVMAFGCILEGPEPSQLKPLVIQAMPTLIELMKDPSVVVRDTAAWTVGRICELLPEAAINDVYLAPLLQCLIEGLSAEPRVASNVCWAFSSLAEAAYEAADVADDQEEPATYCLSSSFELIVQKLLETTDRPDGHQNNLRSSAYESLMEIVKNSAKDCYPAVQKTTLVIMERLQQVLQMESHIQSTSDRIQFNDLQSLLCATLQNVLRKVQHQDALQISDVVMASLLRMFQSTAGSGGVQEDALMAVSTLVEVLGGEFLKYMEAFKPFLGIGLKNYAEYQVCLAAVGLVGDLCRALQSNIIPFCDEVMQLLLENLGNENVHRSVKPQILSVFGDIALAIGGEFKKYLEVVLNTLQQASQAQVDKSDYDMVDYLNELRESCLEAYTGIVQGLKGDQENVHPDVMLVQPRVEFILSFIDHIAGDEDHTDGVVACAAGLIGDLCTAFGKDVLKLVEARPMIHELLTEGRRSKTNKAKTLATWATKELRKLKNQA
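FRET biosensor (snurportin 1 IBB flanked by EYFP and cerulean), 50 nM, with compound 5 min, then 0.125 microM importin beta in PBS, 1 mM DTT, 0.02% Tween-20, 0.1% BSA. CFP/YFP ratio read after 45 min at room temperature; pre-read flags interference.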
Rango dissoc inh = inhibition of RanGTP-driven Rango-importin beta dissociation | Biochemical FRET Rango-importin beta, RanGTP-induced dissociation | Potency, µM (highest dose often 46.1 µM), for inactives: top-dose activity change, negative = inhibition | 340,000 compounds, 0.071% hits | AID 540253; active means falling FRET ratio curve, often poorly fitted, with flat reads before Ran was added; inconclusive means other falling curves, or compound fluorescence or quenching; inactive means flat or rising ratio curve;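 further: potency means the concentration at half of the fitted maximal effect; % of control where 0% means no effect; nearly all actives have a fitted effect of over 45% in size; -100% = wells without RanGTP and RCC1; the record marks most hits as doubtful in a second field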
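Two FRET readings bracket the reaction: one 5 min after compound meets Rango–importin beta, another 45 min after RanGTP-RCC1 (0.6 uM Ran, 0.2 uM RCC1, 2 mM GTP) is added. Only the second defines inhibition.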
miR-21 FLuc = miR-21 reporter, rising signal. HeLa miR-21 FLuc reporter, luciferase, 48 h. Potency, µM (highest dose often 38.3 µM), inactives show top-dose reporter change, positive = more light. 340,000 tested, under 10 active; active = well fitted rising curve with a large enough effect; inconclusive = small, poorly fitted or top-dose-only effect; inactive = no such curve, though single readings can be large or run the other way;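 further: % of control where 0% means no effect; miR-21 action dims this reporter so a rising signal means less miR-21 action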
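Compounds were titrated across several concentrations (up to approximately 40 uM) and incubated 48 hours with HeLa miR-21-FLuc reporter cells (miR-21 target sequence downstream of FLuc, endogenous miR-21). Readout was firefly luciferase luminescence after lytic detection reagent.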
GLA inh pH 4.5 = inhibitors of human alpha-galactosidase A at pH 4.5. P06280. purified enzyme, 4-MU-alpha-Gal fluorescence, pH 4.5. activity change, negative = inhibition, % at 105 µM. 230,000 tested, under 10 active; inconclusive = small, poorly fitted or top-dose-only inhibition, or a rising curve; inactive = flat fitted curve, though single readings scatter; no compound was filed as active;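 further: 0% = full activity with enzyme and -100% = basal without enzyme; dose as in the result columns while the protocol names 77 µM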
Active calls of the source: *; ? = inconclusive; . = no result given.

miR-21 FLuc	Rango-impB inh	Rango dissoc inh	GLA inh pH 4.5	compound
3.5%	3.4%	0.7%	1.4	COc1ccc(C(CCN(Cc2ccc(OC)c(OC)c2)C(C)=O)c2ccccc2)cc1 (centres undefined)
25.6%	?	-21.9%	-1.7	COc1ccc2cc3cc(C(=O)Nc4cc(OC)c(OC)c(OC)c4)oc3nc2c1
-4.2%	1.9%	-13.7%	-0.8	CCCCN(C)C(=O)c1nc2ccccn2c1CN1CCN(C/C=C/c2ccccc2)CC1
-0.7%	4.0%	10.1%	.	COc1ccc(OC)c(S(=O)(=O)N2CCC(C(=O)N3CCCCCC3)CC2)c1
-11.3%	-0.3%	0.1%	.	O=C(CSc1nnc(NC(=O)c2cccc(Br)c2)s1)NCC1CCCO1 (centres undefined)
6.2%	-0.5%	-1.3%	-1.3	COCCNC(=O)C(NC(=O)C1CCC(C)CC1)C(C)C (centres undefined)
-20.5%	3.9%	12.6%	.	COc1ccc(C(=O)Nc2ccc(NC(=O)c3cccs3)cn2)cc1
-0.7%	6.5%	-15.0%	-4.5	Cn1c(N)c(N2CCCCC2)c(=O)n(CC(=O)Nc2ccc(Cl)c(Cl)c2)c1=O
1.4%	4.9%	9.7%	-10.0	Cc1cc(-c2ccccc2)nc2cc(C(=O)N(Cc3ccccc3)Cc3ccccc3)nn12
-68.1%	2.8%	-12.9%	.	O=C(CNC(=O)c1cccs1)c1ccc(Br)cc1
-3.8%	-0.6%	-2.0%	-21.5	O=C(Nc1ccc(C(=O)OC[C@@H]2CCCN3CCCC[C@H]23)cc1)c1cccc(Br)c1
-1.9%	-1.0%	-9.0%	7.6	Cc1c(C(=O)O)sc2nc3n(c(=O)c12)CCCCC3

Part of the list above, with two lines to a compound.
Sequence of screens: miR-21 FLuc, Rango-impB inh, Rango dissoc inh, GLA inh pH 4.5
O=C(CNC(=O)c1cccs1)c1ccc(Br)cc1
 : -68.1%, 2.8%, -12.9%, .
COc1ccc(C(=O)Nc2ccc(NC(=O)c3cccs3)cn2)cc1
 : -20.5%, 3.9%, 12.6%, .
COc1ccc(OC)c(S(=O)(=O)N2CCC(C(=O)N3CCCCCC3)CC2)c1
 : -0.7%, 4.0%, 10.1%, .
CCCCN(C)C(=O)c1nc2ccccn2c1CN1CCN(C/C=C/c2ccccc2)CC1
 : -4.2%, 1.9%, -13.7%, -0.8
Cc1cc(-c2ccccc2)nc2cc(C(=O)N(Cc3ccccc3)Cc3ccccc3)nn12
 : 1.4%, 4.9%, 9.7%, -10.0

Additional results
miR-21 FLuc	Rango-impB inh	Rango dissoc inh	GLA inh pH 4.5	compound
-34.5%	0.3%	11.0%	1.5	COc1ccc(C(=O)Nc2cccc(C(C)=O)c2)c(OC)c1OC
-30.1%	-2.3%	-2.9%	.	CN(CC1COCCO1)C(=O)c1cc(COc2c(F)cccc2F)on1 (centres undefined)
-1.7%	-1.2%	1.8%	0.0	Nc1nnc(SCC(=O)NCCOc2ccccc2)s1
-3.8%	-7.4%	-19.2%	.	COc1ccccc1OCCOc1ccc(/C=C2\C(=N)N3N=C(C)SC3=NC2=O)cc1
-19.3%	-5.2%	16.4%	-4.9	O=c1ccccn1CCOc1ccc(Cl)cc1
-3.7%	?	-5.9%	2.4	Cc1ccc(S(=O)(=O)NCC2COc3ccccc3O2)cc1 (centres undefined)
9.0%	-0.5%	-2.4%	.	COc1ccc(S(=O)(=O)c2c(O)cc(C)c(NS(=O)(=O)c3ccccc3)c2C)cc1
.	2.3%	-10.0%	.	O=C(CSc1nnc(-c2ccccc2F)o1)Nc1ccc(N2CCOCC2)cc1
-6.4%	2.6%	5.6%	0.0	Brc1ccc(-c2nn3c(Cc4ccccc4)nnc3s2)o1
-51.1%	0.3%	-16.0%	-0.7	CCOc1ccc(C2=Nc3ccc(Br)cc3C(c3ccc(N4CCOCC4)cc3)=NN2)cc1
-0.3%	0.7%	15.0%	-2.1	CCCNC(=O)Cn1cnc2sc(C(=O)N3CCCC(C(=O)OCC)C3)c(C)c2c1=O (centres undefined)
-9.2%	0.5%	-0.8%	-2.2	CCC(C)NC(=O)c1ccccc1NC(=O)CN(c1cc(C)ccc1OC)S(C)(=O)=O (centres undefined)
-4.4%	-2.4%	-16.8%	.	COc1ccc(NC(=O)NNC(=O)c2ccc3ccccc3c2O)c(OC)c1
-0.4%	0.1%	-15.0%	6.1	CSc1c(CC(=O)Nc2ccccc2)n(Cc2ccccc2)c2ccccc12
-1.1%	4.0%	-9.0%	3.5	CCn1cc(/C=N\NC(=O)COc2cccc(C)c2C)c(C)n1
-14.5%	0.4%	-9.6%	-0.7	CCc1ccc(N(CC(=O)NCc2ccc(F)cc2)C(=O)c2csnn2)cc1
.	-0.7%	12.4%	.	CCN(CC(=O)NCc1cccs1)C(=O)c1ccc(-c2cccc(C(F)(F)F)c2)o1
.	-2.7%	-2.7%	.	O=C(CCc1c[nH]c2ccccc12)NN1C(=O)NC2(CCCCC2)C1=O
0.7%	0.5%	-12.5%	.	CCCCN(CC)C(=O)c1oc2ccc(S(=O)(=O)N3CCCC3)cc2c1C
4.7%	-1.3%	-21.6%	.	CCCS(=O)(=O)c1nc(S(=O)(=O)c2ccc(C)cc2)c(N2CCOCC2)s1
-2.2%	1.3%	-6.4%	11.2	CC(C)CC(c1nnnn1Cc1ccc2c(c1)OCO2)N1CCC(C(N)=O)CC1 (centres undefined)
-0.2%	-2.7%	0.4%	4.4	CN1CCN(C(=O)CN(c2cc(C(F)(F)F)ccc2Cl)S(C)(=O)=O)CC1
-17.4%	-3.3%	-1.6%	10.6	Cc1cc(C)cc(C(=O)N2CCN=C2c2ccccc2)c1
-1.7%	-1.4%	-1.6%	8.1	CCOc1ccccc1/C=C/c1cc(C(=O)O)c2ccccc2n1
.	5.1%	-4.1%	.	O=C(NCC1CCCO1)c1ccc2c(c1)S(=O)(=O)c1ccccc1C2=O (centres undefined)
-28.2%	1.5%	5.0%	.	O=C(Nc1ccc(OC(F)(F)F)cc1)c1ccc2nc[nH]c2c1
-33.9%	3.7%	10.9%	.	Cc1[nH]c2ccccc2c1/C=N/NC(=O)c1ccccc1
-0.8%	-4.3%	1.8%	.	O=C1CNC(=O)/C(=C\c2ccc(F)cc2)N1
-6.4%	-2.6%	-4.9%	0.5	Cc1nn(Cc2c(Cl)cccc2Cl)c(C)c1NC(=O)/C=C/c1cnn(C)c1C
.	-0.6%	-5.1%	.	O=C(NCCC1CCCCN1S(=O)(=O)c1ccccc1)C(=O)Nc1ccccc1 (centres undefined)
-5.1%	4.9%	0.4%	-1.9	Nc1c(-c2ccccc2)c(CN2CCOCC2)nn1-c1ccc(C(=O)O)cc1
.	-1.1%	9.3%	.	COc1ccc(S(=O)(=O)N2CCCCC2)cc1NC(=O)c1ccc(OC)c(OC)c1
4.8%	-1.6%	0.1%	7.4	CC(C)CCn1c(Cl)nc2c1c(=O)n(C)c(=O)n2C
-7.2%	1.0%	5.1%	-8.5	CN(C)c1ccc(CN(C(=O)COc2ccccc2)C2CCS(=O)(=O)C2)cc1 (centres undefined)
-3.9%	-4.4%	-10.9%	2.5	O=C(COC(=O)Cc1cccc(C(F)(F)F)c1)Nc1cccc2ccccc12
9.8%	4.4%	10.6%	.	CN(C)c1ccc(C(C(=O)NCC2CCCO2)N(Cc2ccccc2)C(=O)c2snc(C(N)=O)c2N)cc1 (centres undefined)
-3.6%	0.9%	-10.8%	.	CCCCn1c(=O)[nH]c2c(oc3ccccc32)c1=O
-5.3%	0.1%	-12.3%	5.3	CCOC(=O)c1c(NC(=O)c2cccs2)sc2c1CCCC2
.	-0.5%	-3.6%	.	Cc1cccc(NC(=O)c2nc[nH]c2C(=O)NCCCNC(=O)c2[nH]cnc2C(=O)Nc2cccc(C)c2)c1
-2.4%	2.9%	8.6%	8.3	O=C(NCc1cccnc1)c1ccccc1[N+](=O)[O-]
-16.1%	-1.5%	-22.7%	6.6	CCc1ccccc1Nc1nc(N)nc(CSc2nnnn2C)n1
-8.7%	?	3.7%	-2.2	CC(=O)CSc1nnc(-c2ccc3c(c2)OCO3)o1
-3.0%	.	.	0.7	Cc1ccc2cc(C#N)c(SCC(=O)Nc3ccc4sc(C)nc4c3)nc2c1
.	4.2%	10.4%	.	Cc1cccc(-n2c(SCC(=O)N3CCN(c4ccccn4)CC3)nnc2N2CCOCC2)c1
13.5%	0.0%	-6.1%	.	CC(=O)c1cccc(Nc2nc(-c3ccccc3)nc3ccccc23)c1
-2.6%	-2.4%	1.1%	3.7	Cc1ccc(/C=N/n2c(=O)c(C(C)(C)C)nn3cnnc23)cc1
0.6%	-1.9%	-9.3%	.	Cc1ccccc1OCc1nnc(SCC(=O)NC2CCCCC2)o1
-12.9%	4.1%	13.1%	.	COc1ccc2cc(C(=O)N3CCC(Cc4ccccc4)CC3)[nH]c2c1
-7.8%	4.6%	-11.0%	0.1	CCc1ccc(NC(=S)N(CCCN2CCOCC2)Cc2ccccn2)cc1
-0.5%	0.7%	-0.3%	7.3	O=C(Nc1ccccc1C(=O)N1CCOCC1)C1CCC(=O)N1C1CCCC1 (centres undefined)
-0.1%	0.5%	?	.	O=C(CN1C(=O)/C(=C/c2ccccc2Cl)SC1=S)NC1C=CS(=O)(=O)C1 (centres undefined)
-5.3%	-3.6%	-3.5%	6.2	Cc1ccc(C2C3=C(CCCC3=O)Nc3nc(SCC(=O)NCc4ccco4)[nH]c(=O)c32)cc1 (centres undefined)
-18.8%	-5.6%	-0.9%	-1.8	CCC(Oc1ccccc1)C(=O)O/N=C(\N)c1ccc(OC)c(OC)c1 (centres undefined)
.	5.3%	2.0%	.	COc1cccc(-c2ncc3ccccc3c2COC(=O)N2CCOCC2)c1
-30.9%	1.4%	19.1%	.	CC(C)(C)c1ccc(C(=O)Nc2nnc(SCC(=O)NCC3CCCO3)s2)cc1 (centres undefined)
?	2.5%	0.4%	-2.1	O=C(Nc1ccccc1C(F)(F)F)N1CCN(c2ccc3nnc(-c4ccc(F)cc4)n3n2)CC1
-1.3%	3.7%	32.5%	-6.8	COc1cc2c(cc1OC)C(C(=O)NCCN(C)C)C(c1cccs1)N(C)C2=O (centres undefined)
.	0.2%	-8.1%	.	COc1ccc(CCC(=O)OCC(=O)Nc2sccc2C(N)=O)cc1
0.2%	-1.7%	0.2%	0.5	CCOC(=O)N1CCC(NC(=O)c2cc(C(=O)Nc3ccc(OC)c(OC)c3)ccc2CO)CC1
-0.9%	0.2%	11.7%	6.8	CCCCCOc1ccc(/C=c2\sc3nc(=O)c(-c4ccccc4)nn3c2=O)cc1OC

More records follow:
miR-21 FLuc	Rango-impB inh	Rango dissoc inh	GLA inh pH 4.5	compound
-20.5%	-0.1%	-19.9%	-11.4	CC(OC(=O)c1ccc2ccccc2n1)C(=O)Nc1ccc(N2CCOCC2)cc1 (centres undefined)
-6.4%	0.9%	13.6%	-1.7	COc1ccc(OCC(=O)N/N=C(/C)Cc2ccccc2)cc1
-0.6%	0.0%	-1.4%	4.6	COc1cccc(-n2c(C)n[nH]c2=O)c1
-0.6%	-1.6%	13.6%	3.7	Cn1nccc1NC(=O)Nc1cccc([N+](=O)[O-])c1
.	-4.5%	-2.8%	.	Cc1ccc(C(=O)NCC(=O)Nc2ccc(S(=O)(=O)Nc3cc(C)nc(C)n3)cc2)cc1
-5.3%	1.5%	-8.4%	1.7	CC1CC(C)(C)NC(=S)N1CCCC(=O)Nc1ccc(F)c(F)c1 (centres undefined)
1.0%	0.2%	5.0%	.	O=C(CN1CCOCC1)N1c2ccccc2Sc2ccccc21
-3.6%	-1.4%	-2.1%	6.4	O=C(NCCc1ccc(Cl)cc1)C1CCN(S(=O)(=O)N2CCCC2)CC1
-13.4%	-2.1%	-1.2%	.	COc1ccc(Cn2nnc3c(C)n[nH]c(=O)c32)cc1

This is a subset; count on the stated rates, not on these rows.
